Screening results from PubChem BioAssay.
CtBP-E1A inh = inhibitors of CtBP/E1A interaction. hit rate 0.49% among 340,000. AlphaScreen GST-E1A/His-CtBP binding, 1536-well; hits give low values; control for the full effect not named in the record. activity change, % (test concentration not listed); in the data active means activity change below about -65%; inconclusive means about -30% to -65%; inactive means above about -30%; also: % is scaled to controls: 0 for no effect and ±100 for the full control effect; compound concentration not given in the record
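In 5 uL wells, 23 nL compound meets equimolar GST-E1A and His-CtBP (5X stock 125 nM each) for 2 h, 37 °C. Beads (5X, 50 ug/mL) then 1 h, 37 °C, dark.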
gsp antagonist = antagonizes gsp, the McCune-Albright syndrome mutation; Potency, µM (doses to about 76.9 µM), inactives show at the highest dose activity change, negative = inhibition, actives largely listed as inhibitors; gsp-mutant cells, cAMP HTRF, 30 min; control for the full effect not named in the record; AID 624288; hit rate 0.4% among 340,000; active = falling curve of any shape with a large fitted effect; inconclusive = falling curve, mostly with a smaller effect; inactive = flat or rising curve; cell line not stated here;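 also: intracellular cAMP measured with PDE inhibitor Ro 20-1724 present during compound exposure; potency is read from the fitted curve at half-maximal effect; % is scaled to controls: 0 for no effect and ±100 for the full control effect; nearly all actives have a fitted effect of over 65% in size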
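HTRF cAMP measurement after 30 min RT detection following 30 min, 37C compound treatment alongside […] (added as 300 uM solution) in G418-selected cells seeded at 2000/well and grown 16–24 h.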
gsp ag = agonists of gsp mutant (McCune-Albright syndrome). gsp mutant cells, cAMP HTRF, 30 min; control for the full effect not named in the record. Potency, µM (titrated, usually from 76.9 µM), for inactives: top-dose activation (cAMP increase), actives largely listed as activators. hit rate 0.13% among 340,000; active = well fitted activation curve with a large enough effect; inconclusive = small, poorly fitted or top-dose-only effect, or another doubt; inactive = no such curve, though single readings can be large or run the other way; cell line not stated here;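 also: phosphodiesterase inhibitor Ro 20-1724 added with compounds to block cAMP breakdown; potency is read from the fitted curve at half-maximal effect; nearly all actives have a fitted effect of over 60% in size; about a fifth of the inactives were tested at one dose only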
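Cells stably selected in G418 were plated at 2000/well, grown 16-24 hr, then given compounds in DMSO with the PDE inhibitor […] (300 uM solution added) for 30 min at 37C; cAMP was read by HTRF.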
TRPV1 PAM = human TRPV1 potentiation | AID 540277 | hit rate 0.02% among 320,000 | TRPV1-expressing cells, Fluo-8 calcium influx, capsaicin EC20 potentiation; host cell line not named in the record; control for the full effect not named in the record | potentiation, % at 8.33 µM; active means potentiation above 80%; inconclusive means 30% to 80%; inactive means below 30%; also: 0% is about no effect
Target sequence (Q8NER1 whole entry, looked up): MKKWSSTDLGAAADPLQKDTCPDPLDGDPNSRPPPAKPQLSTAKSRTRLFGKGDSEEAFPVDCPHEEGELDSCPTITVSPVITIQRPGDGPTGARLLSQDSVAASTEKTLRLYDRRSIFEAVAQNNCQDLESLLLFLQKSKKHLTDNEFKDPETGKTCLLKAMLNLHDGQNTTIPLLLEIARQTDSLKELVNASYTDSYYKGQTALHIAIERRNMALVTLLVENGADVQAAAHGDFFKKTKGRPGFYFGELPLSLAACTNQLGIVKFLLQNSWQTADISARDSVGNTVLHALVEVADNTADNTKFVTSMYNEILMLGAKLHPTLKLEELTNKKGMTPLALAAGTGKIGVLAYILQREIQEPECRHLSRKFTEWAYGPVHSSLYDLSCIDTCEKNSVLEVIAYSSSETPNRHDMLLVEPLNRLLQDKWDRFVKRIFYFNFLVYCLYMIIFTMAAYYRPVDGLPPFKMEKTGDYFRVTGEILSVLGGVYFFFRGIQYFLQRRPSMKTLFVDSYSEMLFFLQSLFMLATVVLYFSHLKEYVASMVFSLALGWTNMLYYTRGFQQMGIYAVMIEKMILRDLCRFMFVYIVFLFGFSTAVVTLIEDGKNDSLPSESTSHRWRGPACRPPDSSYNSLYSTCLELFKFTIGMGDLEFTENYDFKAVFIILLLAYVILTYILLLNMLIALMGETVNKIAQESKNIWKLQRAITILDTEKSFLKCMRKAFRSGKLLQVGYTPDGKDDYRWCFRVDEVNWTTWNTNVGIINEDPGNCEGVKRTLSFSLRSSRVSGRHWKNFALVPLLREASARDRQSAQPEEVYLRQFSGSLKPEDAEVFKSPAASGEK
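Fluo-8 calcium influx in TRPV1-expressing cells, kinetic read (ex 480/em 520 nm). Compound added and read 3 min for agonist activity, followed by capsaicin at EC20 final and 2 min further read for enhancement.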
Menin-MLL FL inh = menin-MLL binding inhibition, fluorescein peptide; Fluorescence polarization, fluorescein-MLL peptide displacement from menin; FP activity change, % at 61.4 µM; 290,000 tested, under 10 active; AID 1766; inconclusive = falling polarisation curve, or a change in total fluorescence; inactive = total fluorescence flat and polarisation flat or rising; no compound was filed as active; the % refers to the polarisation; negative = inhibition;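 also: % of control where 0% means no effect; inhibitors lower the polarisation; unlabelled MLL peptide was the positive control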
ClpP mod = qHTS Assay for Activators of ClpP. ATP-dependent Clp protease proteolytic subunit (Bacillus subtilis (strain 168)), P80244. purified B. subtilis ClpP, FRET peptide cleavage, 20 min. Potency, µM (top dose mostly 57.5 µM), for the others: at the top dose activity change, negative = active. hit rate 1.9% among 340,000. AID 651965, 2013; active = well fitted falling curve with a large enough effect; inconclusive = small, poorly fitted or top-dose-only effect; inactive = no such curve, though single readings can be large or run the other way; also: potency is read from the fitted curve at half-maximal effect; the source files actives as falling curves though it sought activators and does not explain the sign; nearly all actives have a fitted effect of over 65% in size; many hits overshoot -100%
Target sequence (P80244 whole entry, looked up): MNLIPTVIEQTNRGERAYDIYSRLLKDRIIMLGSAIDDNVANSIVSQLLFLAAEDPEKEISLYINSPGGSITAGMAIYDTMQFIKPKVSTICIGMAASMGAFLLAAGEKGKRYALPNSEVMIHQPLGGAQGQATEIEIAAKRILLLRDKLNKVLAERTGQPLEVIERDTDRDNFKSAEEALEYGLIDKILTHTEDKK
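Purified B. subtilis ClpP, 10 microg/mL final in Tris/HCl pH8 with KCl, BSA, glycerol and Tween-20, cleaved an Abz/nitrotyrosine-quenched decapeptide. Fluorescence (ex 320, em 430) was read at 0 and 20 min at room temperature. Delta was normalized to 5.8 microM ADEP and DMSO/no-enzyme controls.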
Sfp PPTase inh = inhibitors of Bacillus subtilis Sfp phosphopantetheinyl transferase | Q9F4F7 | Biochemical Sfp PPTase activity, qHTS | Potency, µM, without a hit: max response, negative = inhibition, usual class: inhibitors | hit rate 3.5% among 310,000; active = well fitted inhibition curve with a large enough effect; inconclusive = small, poorly fitted or top-dose-only effect, or another doubt; inactive = no such curve, though single readings can be large or run the other way;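 also: the enzyme is Sfp with the accession as filed and its product quenches rhodamine fluorescence; potency is read from the fitted curve at half-maximal effect; 0% = enzyme reaction without inhibitor and -100% = no enzyme wells; top concentration of the series not given in the record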
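Step 1, compound plus 15 nM Sfp-PPTase, 15 min, room temperature. Step 2, add rhodamine-CoA (5 uM) and BHQ-2-YbbR (12.5 uM). Step 3, read 525/598 nm fluorescence at 0 and 30 min.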
Active calls of the source: *; ? = inconclusive; . = no result given; [ ] = another dose, or the depositor's remark. Rows were taken by chance. About 5.3% of those tested had a hit in this group.

SMILES	CtBP-E1A inh	gsp antagonist	gsp ag	TRPV1 PAM	Menin-MLL FL inh	ClpP mod	Sfp PPTase inh
O=C1CC(NS(=O)(=O)c2cc(F)ccc2F)CN1c1ccc2c(c1)OCCO2 (stereo not given)	-22	8%	20%	1	.	-2.3%	.
COc1ccc(OC)c(-c2csc(NC(=O)Cc3ccccc3OC)n2)c1	-29	-8%	5%[15.4 µM]	20	7.8	-1.7%	6%
CCCCNCCS(=O)(=O)NCc1ccc(OC)cc1	2	3%	.	.	.	0.0%	.
CN(C)CCN(C(=O)/C=C/c1cccs1)c1nc2ccc(F)cc2s1	-3	-2%	24%	-6	5.4	8.7%	5%
COc1ccccc1NC(NC(=O)c1ccco1)C(=O)c1ccccc1 (stereo not given)	83	20%	-37%[inhibitor]	-20	0.5	1.0%	-7%
COc1ccccc1C(C)NC(=O)c1cc(=O)[nH]c2ccccc12 (stereo not given)	0	-18%	-3%[15.4 µM]	0	-2.2	0.3%	6%
Cc1nn(C)cc1CN1CCCC(C(=O)c2ccc(-c3ccccc3)c(F)c2)C1 (stereo not given)	-4	9%	0%[15.4 µM]	-13	-2.1	.	1%
Oc1c(/C=N/Nc2cccc3cccnc23)ccc2ccccc12	1	3%	1%	-4	25	-16%	-7%
CCCn1c(=O)c(C(=O)NCCc2ccc(OC)cc2)c(O)c2ccccc21	15	5%	0%	26	1.5	?	-6%
Cc1ccnc(NS(=O)(=O)c2ccc(N3C(=O)C4CCCCC4C3=O)cc2)n1 (stereo not given)	2	-12%	7%	2	-0.8	.	1%
FC(F)(F)c1ccc(Sc2nnc(-c3cccs3)n2CC2CCCO2)nc1 (stereo not given)	14	0%	-4%	-2	2.5	-1.0%	16%
CCCn1c(=O)c(-c2ccccc2)c(O)c2ccccc21	-2	7%	3%	6	-1.5	-9.9%	-6%
CCCCCSc1nnc(C)c(=O)[nH]1	3	1%	-19%	-3	-1.5	0.3%	-2%
COc1cccc(NC(=O)CCC(=O)NCc2ccco2)c1	4	-3%	28%	8	0.2	0.7%	9%
CC(=O)c1ccc(N2CCN(Cc3nc(Cc4ccccc4)no3)CC2)cc1	.	-7%	-9%	10	0.2	-13%	-11%
CC(C)(C)OC(=O)C[C@H]1C/C=C\C[C@H](CC(=O)NCCO)C(=O)N[C@@H](Cc2ccccc2)COC1=O	5	8%	.	.	.	0.9%	.
Cc1ccc(NC(=O)c2ccc(C(C)(C)C)cc2)cc1[N+](=O)[O-]	0	1%	-16%	4	.	-24%	-9%
O=C(NCCCCc1ccccc1)Nc1ccc(F)cc1F	-20	12%	5%	-3	.	-2.0%	1%
Cc1noc(C)c1S(=O)(=O)N1CCC(C(=O)N2CCC(C)CC2)CC1	0	-1%	12%	-15	0.6	-0.3%	14%
CCN(CC)S(=O)(=O)c1cc(C(=O)OC)ccc1Cl	11	?	4%	-7	4.3	-1.3%	7%
CCCCNC(=O)O[C@H]1C[C@@H]2CCN3C(=O)CCC(C)(C)[C@H](C1)[C@H]23	-3	9%	-29%	?	-2.7	-2.8%	3%
O=C1C2=C(NC(=S)NC2c2ccc(Cl)cc2)NC(c2ccc(Cl)cc2)N1c1ccc(Cl)cc1 (stereo not given)	1	2%	?	-11	0.5	-7.0%	?
COc1ccc(Cc2nnc(NC(=O)c3cccc(F)c3)s2)cc1OC	-1	8%	20%	-1	-6.0	0.9%	-12%
CCN(CC)c1ccc2cc(NC(=O)CCC(=O)O)c(=O)oc2c1	5	?	?	-7	?	-15%	1%
COc1ccc(C2(CNC(=O)C(=O)Nc3ccc(C)cc3)CCOCC2)cc1	.	-1%	20%[15.4 µM]	-8	0.7	.	17%
Cc1ccc(CN(C(=O)c2cc(=O)c3cc(C)cc(C)c3o2)C2CCS(=O)(=O)C2)cc1 (stereo not given)	.	-10%	9%	18	1.8	-1.8%	17%
Cc1ccc(Cl)cc1NS(=O)(=O)c1cc2[nH]c(=O)c(=O)[nH]c2cc1C	.	-6%	20%	-35	.	-29%	13%
CC(=O)c1c(C)[nH]c(C(=O)CN2C(=O)NC(C)(c3ccc(C)cc3)C2=O)c1C (stereo not given)	-2	-3%	13%	1	0.1	1.4%	7%
C/C(=N/OCc1ccc(Br)cc1)c1ccccn1	57	-7%	5%	-8	1.5	.	6%
O=C(NN1C(=O)/C(=C/c2ccc(O)cc2)SC1=S)c1cccc(O)c1	.	-21%	-22%	-11	?	-2.2%	27%
Cc1ccc(CN2C(=O)C(C)(C)Oc3ccc(C(=O)N4CCCCC4)cc32)cc1	-2	-8%	-8%	-12	-0.3	1.2%	3%
Cc1c(C=O)c2ccccn2c1C(=O)c1ccc(F)cc1	2	-21%	5%	-9	5.1	2.3%	1%
Cc1ccc(NC(=S)Nc2ccc(S(=O)(=O)Nc3ncccn3)cc2)c(C)c1	0	9%	5%	.	12	-3.2%	-3%
COc1ccc(NC(=O)CSc2nc(N)c(NC(=O)c3ccccc3F)c(=O)[nH]2)cc1	-24	6%	-5%	4	0.0	-1.6%	-6%
O=C(CSc1ccc2c(c1)OCCO2)Nc1ncccc1O	-9	-3%	-34%[inhibitor]	3	.	-0.6%	.
O=C(O)C(=Cc1cccc([N+](=O)[O-])c1)c1ccc(Cl)cc1	1	-12%	3%[15.4 µM]	.	.	25µM*	.
O=C(NNS(=O)(=O)c1ccc2ccccc2c1)c1cc(-c2ccccn2)nc2ccccc12	-15	?	1%[15.4 µM]	30	1.2	.	-13%
COc1ccc(OCCOc2ccc(C)nc2[N+](=O)[O-])cc1	0	9%	-1%	26	2.1	0.2%	5%
O=C(Nc1cccc(C(=O)N2CCCC2)c1)C1CCC1	3	-1%	.	.	.	0.5%	.
O=C(O)c1cc(-c2cccs2)nn1-c1ccc(F)cc1	5	-4%	3%	1	1.8	.	19%

Reformatted field by field: two of the compounds above
> Cc1c(C=O)c2ccccn2c1C(=O)c1ccc(F)cc1
  CtBP-E1A inh: 2 | gsp antagonist: -21% | gsp ag: 5% | TRPV1 PAM: -9 | Menin-MLL FL inh: 5.1 | ClpP mod: 2.3% | Sfp PPTase inh: 1%

> O=C(Nc1cccc(C(=O)N2CCCC2)c1)C1CCC1
  CtBP-E1A inh: 3 | gsp antagonist: -1% | gsp ag: . | TRPV1 PAM: . | Menin-MLL FL inh: . | ClpP mod: 0.5% | Sfp PPTase inh: .

Continuation:
SMILES	CtBP-E1A inh	gsp antagonist	gsp ag	TRPV1 PAM	Menin-MLL FL inh	ClpP mod	Sfp PPTase inh
CCCOc1ccc(C2=NNC(c3cccs3)=Nc3ccc(OC)cc32)cc1	-24	-5%	-1%	-2	1.9	-2.0%	-1%
Cc1ccc(C(=O)Nc2cccc(C(F)(F)F)c2)cc1Nc1ncnc2nc[nH]c12	-13	.	?	-14	1.0	22%	-1%
COC(=O)C1C(c2ccccc2)C(C(=O)N2CCOCC2)C1c1ccccc1 (stereo not given)	4	3%	?	.	0.2	-0.2%	4%
CCOc1ccc(N(C)S(=O)(=O)c2ccc(C)c(C(=O)Nc3nnc(C4CC4)s3)c2)cc1	.	-22%	-6%	7	.	-6.0%	.
CC1Sc2ccc(S(=O)(=O)N3CCC(C(=O)N4CCN(C)CC4)CC3)cc2NC1=O (stereo not given)	-8	10%	?	-2	.	-2.9%	7%
CCC(C)NC(=O)CN(c1cc(C)ccc1OC)S(C)(=O)=O (stereo not given)	1	3%	-33%[inhibitor]	11	0.6	-1.7%	17%
c1ccc(-c2noc(C3CCC3)n2)nc1	0	-5%	-4%[15.4 µM]	-5	4.5	-2.6%	8%
Cc1ccnc(NC(=O)c2cc(-c3ccc(Cl)s3)nc3ccccc23)c1	6	-9%	-3%[15.4 µM]	-12	.	.	.
CCN(CC(=O)Nc1ccccc1OC)C(=O)/C=C/c1cccs1	-5	-5%	9%[15.4 µM]	7	.	.	.
Cc1cccc2nc(-c3ccco3)c(Nc3ccccc3)n12	.	-10%	-14%	8	-6.0	3.0%	-16%
CCN1CCSc2ccc(C(=O)NCc3ccccc3C)cc21	1	-27%	4%	-19	-3.8	4.0%	-8%
N#CC(C#N)=C/C(C#N)=C(/N)N1CCN(c2ccc(Cl)cc2)CC1	0	4%	-23%	15	5.9	88%	9%
O=C(N/C(=C\c1ccccc1)C(=O)N1CCN(CCO)CC1)c1ccccc1	10	?	-1%	2	-0.4	0.6%	-1%
CC(C)(C)c1cc(C(F)(F)F)n2ncc(-c3ccccc3)c2n1	4	-1%	5%[15.4 µM]	-4	2.2	.	13%
O=C(NCc1cccc(Cl)c1)c1ccc(-c2csnn2)cc1	-1	4%	18%	5	1.9	.	11%
CCOc1ccccc1C(=O)N(C)Cc1cc2ccccc2[nH]c1=O	2	5%	-31%	-11	3.0	?	1%
O=C(Nc1csc(Cc2c(Cl)cccc2Cl)n1)NN1CCOCC1	-5	-1%	-37%[inhibitor]	-3	4.0	.	-3%
Cc1nc(SCC(=O)N(C)C2CCS(=O)(=O)C2)c(C#N)c(C)c1C (stereo not given)	2	3%	?	-21	.	-3.7%	.
COc1ccc(NC2c3ncccc3C(=O)N2Cc2ccccc2)c(OC)c1 (stereo not given)	7	-12%	-6%	-6	-0.2	14%	-9%
O=C(COC(=O)c1cc(-c2ccccc2)nc2ccccc12)NC1CC1	-14	-14%	17%	.	.	3.3%	.
Nc1cccc2c1C(=O)N(C(=O)/C=C/c1ccc(F)cc1)C2=O	-65*	7%	-12%[15.4 µM]	-1	-24	-15%	-21%
O=C(OCCC12CC3CC(CC(C3)C1)C2)c1ccc(NCc2cc(O)ccc2O)cc1	1	-6%	2%	.	.	-7.2%	.
CC(=O)NCCOc1ccc2oc3ccccc3c2c1	3	-3%	-4%	-15	-1.5	-6.5%	-1%
CC(C)NC(=O)NC(=O)COC(=O)c1cccc(S(=O)(=O)N2CCCCC2)c1	7	-8%	-1%	1	2.8	-25%	-21%
Cc1ccc(OCCC(=O)Nc2ccc(C)c(S(=O)(=O)N3CCOCC3)c2)cc1	.	-12%	-9%	1	.	-0.6%	.
Oc1ccc(C=Nc2ccc3ncccc3c2)c(O)c1	.	.	.	4	7.0	.	?
